NR1D1 modulator – modulates human Rev-erb alpha binding to DNA; Rev-erbα–FITC-DNA binding, fluorescence polarization, 90 min; activity, % at 10 µM; actives 0.79% (n = 370,000);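 active = activity above about 14%, limit read from the data; passing the limit was not always enough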;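 note: 0% = DMSO wells with 35 nM protein and 100% = DMSO wells with 750 nM protein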
ARFGAP1 inhibitor – rat ARFGAP1 inhibition | Q62848 | Arfgap1-stimulated ARF1 GTP hydrolysis, GDP FP detection | inhibition, % at 16.5 µM | actives 0.26% (n = 360,000) | AID 651572;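 active = inhibition above a per-plate limit, mean inhibition of low control wells plus 3 SD, cut at about 25% in these data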;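 note: 0% = DMSO wells with enzyme and 100% = wells lacking Arfgap1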
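System: truncated rat Arfgap1 GAP domain / Benchmarks: high control wells lacking Arfgap1, low control full reaction with DMSO / Times: compound-enzyme preincubation 20 min, reaction 120 min, detection 60 min, 25 °C / Repeats: one replicate per compound / Also added: human ARF1(Δ1-17)-GTP substrate / Measured by: Tracer-displacement fluorescence polarization with EDTA stop, 620/688 nm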
ASAP1 GAP inh – blocks human ASAP1-stimulated Arf1 GTP hydrolysis; Q9ULH1; GDP FP detection; inhibition, % at 16.5 µM; actives 0.19% (n = 360,000); AID 624377; in the data active = inhibition above about 25%;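 note: 0% = vehicle with enzyme and substrate and 100% = no enzyme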
mABHD4 FP – inhibits mouse alpha/beta hydrolase domain 4; purified mABHD4, FP-Rh probe fluorescence polarization; inhibition, % at 8.92 µM; actives 0.54% (n = 370,000); AID 720543;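 active = inhibition exceeding the mean over every tested compound plus 3 SD, cut at about 30% in these data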;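 note: 0% = plate median of compound wells and 100% = S159A mutant with DMSO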
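Material: mouse ABHD4 enzyme, wild type; Benchmarks: S159A mutant high control, sample median low control; Buffer or medium: HEPES pH 7.0, NaCl, Pluronic buffer; Signal: fluorescence polarization; Read-out: percent inhibition of probe binding, normalized to plate controls; Timing: pre-incubation 45 min, probe exposure 60 min, at 25 °C; Dosing: 8.92 µM, single dose.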
PG9 Ab binder – small molecules binding HIV-1 gp120 antibody PG9 | inhibition, % at 6.7 µM | actives 0.43% (n = 360,000) | TR-FRET gp120-PG9 antibody binding | AID 624416; in the data active = inhibition above about 8.5%
rCAG binder – molecules binding r(CAG) RNA repeats; r(CAG) RNA repeat, TO-PRO-1 dye displacement fluorescence; inhibition, % at 3 µM; actives 1.3% (n = 370,000); AID 651821;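 active = inhibition above the plate cutoff, the mean of all test compounds on that plate plus 3 SD, cut at about 35% in these data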;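 note: 0% = DMSO alone and 100% = 100 µM mitoxantrone as full dye displacement; higher means more dye released from RNA so lower well fluorescence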
GC-B act – GC-B (human) receptor activation | P20594 | HEK293-GC-B cells, CNP EC30, cGMP TR-FRET; 0% at EC30 CNP, 100% saturating CNP | activation, % at 10 µM | actives 0.11% (n = 370,000) | AID 1920062;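 active = activation at 10 µM reaching about 35% in either raw or pattern-adjusted values, limit read from the data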
Target sequence (P20594 whole entry, looked up): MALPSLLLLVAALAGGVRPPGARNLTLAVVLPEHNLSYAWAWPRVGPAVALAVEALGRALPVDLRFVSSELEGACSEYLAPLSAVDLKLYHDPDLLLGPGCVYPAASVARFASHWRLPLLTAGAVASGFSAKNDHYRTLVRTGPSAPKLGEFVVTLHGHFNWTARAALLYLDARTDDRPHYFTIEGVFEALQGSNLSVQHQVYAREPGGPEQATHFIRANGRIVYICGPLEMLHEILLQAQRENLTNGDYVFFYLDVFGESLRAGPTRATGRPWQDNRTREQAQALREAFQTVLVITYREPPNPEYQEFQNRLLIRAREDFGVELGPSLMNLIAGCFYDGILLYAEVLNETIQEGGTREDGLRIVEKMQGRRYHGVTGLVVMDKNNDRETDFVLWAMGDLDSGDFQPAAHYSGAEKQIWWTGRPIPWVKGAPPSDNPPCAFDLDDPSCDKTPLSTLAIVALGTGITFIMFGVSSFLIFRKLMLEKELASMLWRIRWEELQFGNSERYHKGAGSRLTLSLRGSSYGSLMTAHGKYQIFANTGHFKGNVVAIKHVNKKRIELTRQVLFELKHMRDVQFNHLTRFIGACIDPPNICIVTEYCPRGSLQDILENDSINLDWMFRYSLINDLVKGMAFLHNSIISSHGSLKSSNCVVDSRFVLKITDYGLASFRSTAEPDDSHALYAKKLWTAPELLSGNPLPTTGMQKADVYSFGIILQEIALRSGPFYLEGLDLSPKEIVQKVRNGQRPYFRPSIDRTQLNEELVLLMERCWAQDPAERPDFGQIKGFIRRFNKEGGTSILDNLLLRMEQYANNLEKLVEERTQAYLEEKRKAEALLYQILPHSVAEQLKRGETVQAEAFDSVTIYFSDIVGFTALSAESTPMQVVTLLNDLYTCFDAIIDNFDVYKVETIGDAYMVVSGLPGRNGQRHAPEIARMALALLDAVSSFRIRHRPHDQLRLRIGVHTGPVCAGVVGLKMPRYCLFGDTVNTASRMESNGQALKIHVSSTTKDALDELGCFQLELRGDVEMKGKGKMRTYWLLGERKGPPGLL
NPR1 activator – GC-A (human) enzyme activation. HEK293 GC-A cells, cGMP TR-FRET, EC30 ANP; 0% at EC30 ANP, 100% saturating ANP. activation, % at 10 µM. actives 0.14% (n = 370,000). AID 1671463; in the data active = activation above about 40%
SMARCA2 activ – increases SMARCA2 function in MMTV reporter cells. AID 652017. MG213 cells, MMTV-luciferase reporter, dexamethasone, overnight. activation, % at 9.1 µM. actives 1% (n = 370,000); in the data active = activation above about 7.8%;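 note: 0% = vehicle wells and 100% = reference activator wells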
Starred values were filed as active, the others as inactive. Only part of the results is shown, so the mix of outcomes need not match the whole.

1) CCCCOc1ccc(C2C(C(=O)c3ccc(C)o3)=C(O)C(=O)N2Cc2ccco2)cc1 (centres undefined)
2) CCOC(=O)c1cc(Br)c(=O)n2ccccc12
3) CCN1CCN(c2oc(/C=C/c3ccccc3)nc2C#N)CC1
4) S=C(NN=C(C1CC1)C1CC1)Nc1ccccc1
5) COc1ccccc1C1/C(=C(/O)c2ccccc2)C(=O)C(=O)N1CC(C)O (centres undefined)
6) O=C(NCCN1CCCCC1)c1ccco1
assay / entry	1	2	3	4	5	6
NR1D1 modulator	-7	3	5	-4	3	8
ARFGAP1 inhibitor	2	15	-2	1	-17	-2
ASAP1 GAP inh	-8	-1	-13	10	3	-3
mABHD4 FP	4	2	2	6	2	-3
PG9 Ab binder	19*	-1.0	0.4	-0.7	0.5	1.4
rCAG binder	26	5	-2	8	3	0
GC-B act	-8	0	-14	0	-2	0
NPR1 activator	-1	2	-2	-2	7	-1
SMARCA2 activ	-3	-1	1	1	-1	-1

7) NC(=O)Nc1ccc(Nc2ccccc2)cc1
8) COc1ccc(-c2nnc(-c3cccnc3)o2)cc1
9) COc1ccc(-c2ccc(OC)cc2)cc1
10) C/C(=N/OC(=O)C1CC1)c1cc(-c2ccc(Cl)cc2)no1
11) Cc1csc(NC(=S)Nc2cccc(Cl)c2)n1
12) C=CCn1c(SCCOc2ccccc2)nnc1C(C)NC(=O)c1ccccc1 (centres undefined)
assay / entry	7	8	9	10	11	12
NR1D1 modulator	7	-3	0	5	3	-2
ARFGAP1 inhibitor	1	6	-2	7	5	10
ASAP1 GAP inh	1	-15	-2	1	10	7
mABHD4 FP	3	3	-8	-3	-2	-7
PG9 Ab binder	-5.0	-1.4	-0.4	0.7	-1.6	-1.0
rCAG binder	1	1	-1	-3	16	-8
GC-B act	-3	-4	-2	2	2	-8
NPR1 activator	-7	-8	-4	23	5	-7
SMARCA2 activ	3	3	-2	2	1	-4

13) Oc1cccc(/C=N/c2c(-c3ccco3)nc3ccccn23)c1
14) COc1ccc(C(=O)Cn2c(Cl)nc3c2c(=O)n(C)c(=O)n3C)cc1
15) COc1ccccc1-n1c(-c2cc(-c3ccc(F)cc3)n[nH]2)n[nH]c1=S
16) COc1ccc(C2NC(c3ccc(OC)cc3OC)C(C)C(=O)C2C)c(OC)c1 (centres undefined)
17) O=S1(=O)CCC(NS(=O)(=O)c2ccc3ccccc3c2)C1 (centres undefined)
18) COc1cc(OC)c(OC)cc1/C=N/n1c(C)nnc1C
assay / entry	13	14	15	16	17	18
NR1D1 modulator	-5	2	1	-4	-1	3
ARFGAP1 inhibitor	-2	-4	-5	-3	-3	-11
ASAP1 GAP inh	-3	-4	-3	5	-2	1
mABHD4 FP	34*	0	6	9	2	1
PG9 Ab binder	-21	-0.1	0.4	0.5	-1.1	0.1
rCAG binder	8	0	9	-10	3	-1
GC-B act	-6	-3	-6	5	-4	4
NPR1 activator	4	-2	-1	15	2	2
SMARCA2 activ	-1	-2	-2	-2	-2	-2

19) COc1ccc(OC)c(NC(=O)CSc2ccc3nnc(-c4cccnc4)n3n2)c1
20) CCOC(=O)c1sc(NC(=O)C(OC(C)=O)c2ccccc2)nc1C (centres undefined)
21) C=CCn1c(SCCOc2ccc(OC)cc2)nnc1C(C)NC(=O)c1ccc(OC)cc1 (centres undefined)
22) COc1ccc(N(C(C)=O)S(=O)(=O)c2cccc3cccnc23)cc1
23) Cc1c(C(=O)N(C)Cc2ccc(OC(F)F)cc2)oc2ccccc12
24) COc1ccc(C(=O)NC(=S)NNC(=O)c2ccccc2O)cc1
assay / entry	19	20	21	22	23	24
NR1D1 modulator	-1	11	1	-5	2	-5
ARFGAP1 inhibitor	1	8	-5	-5	2	-7
ASAP1 GAP inh	5	-14	6	-11	8	-5
mABHD4 FP	8	4	7	-11	-10	14
PG9 Ab binder	-0.1	0.2	0.0	1.7	0.2	-1.1
rCAG binder	1	-4	-4	1	-5	8
GC-B act	1	2	-7	-4	2	-1
NPR1 activator	-7	4	5	2	2	2
SMARCA2 activ	0	-1	-2	-2	-1	2

Entries of single compounds as entered above.
Entry for COc1ccc(N(C(C)=O)S(=O)(=O)c2cccc3cccnc23)cc1 → NR1D1 modulator: -5; ARFGAP1 inhibitor: -5; ASAP1 GAP inh: -11; mABHD4 FP: -11; PG9 Ab binder: 1.7; rCAG binder: 1; GC-B act: -4; NPR1 activator: 2; SMARCA2 activ: -2
Entry for COc1ccc(OC)c(NC(=O)CSc2ccc3nnc(-c4cccnc4)n3n2)c1 → NR1D1 modulator: -1; ARFGAP1 inhibitor: 1; ASAP1 GAP inh: 5; mABHD4 FP: 8; PG9 Ab binder: -0.1; rCAG binder: 1; GC-B act: 1; NPR1 activator: -7; SMARCA2 activ: 0

Going on with the list.
25) NS(=O)(=O)c1ccc(NC(=O)COC(=O)C2(c3ccccc3F)CCCC2)cc1
26) CC(=O)c1ccc(OC(=O)Cc2cccc3ccccc23)cc1
27) CCOC(=O)c1c(C)[nH]c(C)c1C(=O)COC(=O)c1sccc1C
28) O=C(N[C@@H](Cc1ccccc1)C(=O)NCCc1c[nH]c2ccccc12)c1ccco1
29) C=CCn1c(SCC(=O)c2ccc(OC)cc2)nnc1C(C)NC(=O)c1cccs1 (centres undefined)
30) O=C(NC(=S)NNC(=O)c1ccccc1O)c1ccc(F)cc1
assay / entry	25	26	27	28	29	30
NR1D1 modulator	-1	1	-1	6	6	6
ARFGAP1 inhibitor	0	-4	3	0	5	-1
ASAP1 GAP inh	-6	-10	-7	-6	1	0
mABHD4 FP	-5	-5	-1	3	5	9
PG9 Ab binder	-1.3	-1.1	1.3	1.1	-1.2	-3.1
rCAG binder	17	7	-1	4	0	6
GC-B act	1	-1	-4	1	2	6
NPR1 activator	-3	3	-1	-3	2	0
SMARCA2 activ	-4	0	-3	-1	-2	1

31) CCCCC1=CC2=CC(=O)C(C)(OC(=O)CC)C(=O)C2=CN1C1CCCCC1 (centres undefined)
32) CCN1CCN(c2nc3ccccc3nc2C(C#N)S(=O)(=O)c2ccc(C)c(C)c2)CC1 (centres undefined)
33) COc1ccc(Br)cc1/C=N/n1c(C)nnc1C
34) Fc1ccc(-c2csc(-c3cccnc3)n2)cc1F
35) CSC1=N/C(=C\c2ccccc2Cl)C(=O)N1N(C)C
36) C[C@H](NC(=O)c1nc[nH]c1C(=O)N[C@@H](C)c1ccccc1)C(=O)OC(C)(C)C
assay / entry	31	32	33	34	35	36
NR1D1 modulator	-1	-1	-5	1	3	1
ARFGAP1 inhibitor	-5	-8	4	-4	4	2
ASAP1 GAP inh	16	5	8	2	8	-9
mABHD4 FP	7	-9	-2	-7	2	-16
PG9 Ab binder	-2.3	-1.9	1.1	0.1	1.4	0.8
rCAG binder	4	5	-3	-1	-2	-10
GC-B act	-2	5	1	-11	-1	1
NPR1 activator	2	-1	4	-8	6	2
SMARCA2 activ	1	-4	-1	3	-2	-1

37) Cc1ccc(-n2nc(-c3ccccc3)cc2Nc2ccccc2N)cc1
38) CCOC(=O)[C@@H](C)N(Cc1ccc(OC)cc1)S(=O)(=O)N(Cc1ccccc1)[C@H](C(=O)OC)C(C)C
39) CC(C)NC(=O)NC(=O)COC(=O)Cc1c(F)cccc1Cl
40) COC(=O)[C@@H](CC(C)C)NS(=O)(=O)N(Cc1ccccc1)[C@@H](CC(C)C)C(=O)OC
41) CC(=O)C1=C(C)Nc2ncnn2C1c1cccc(OCc2ccccc2)c1 (centres undefined)
42) CC1CCC(NCCNC(=O)c2ccco2)CC1 (centres undefined)
assay / entry	37	38	39	40	41	42
NR1D1 modulator	6	-5	3	4	2	-5
ARFGAP1 inhibitor	6	14	-15	6	4	1
ASAP1 GAP inh	3	3	10	0	-1	11
mABHD4 FP	10	-8	-3	-12	-4	7
PG9 Ab binder	-1.7	-1.5	-1.2	-3.9	0.5	0.6
rCAG binder	2	-2	-3	-11	1	3
GC-B act	-5	-6	7	-16	-3	-1
NPR1 activator	-3	-7	5	-7	-2	-1
SMARCA2 activ	-2	-1	-5	0	-2	-1

Some of these compounds in order of the ASAP1 GAP inh value, descending.
No.	canonical_smiles	ASAP1 GAP inh
31	CCCCC1=CC2=CC(=O)C(C)(OC(=O)CC)C(=O)C2=CN1C1CCCCC1 (centres undefined)	16
38	CCOC(=O)[C@@H](C)N(Cc1ccc(OC)cc1)S(=O)(=O)N(Cc1ccccc1)[C@H](C(=O)OC)C(C)C	3
17	O=S1(=O)CCC(NS(=O)(=O)c2ccc3ccccc3c2)C1 (centres undefined)	-2

The listing picks up; the 4 compounds before the break are reprinted first.
39) CC(C)NC(=O)NC(=O)COC(=O)Cc1c(F)cccc1Cl
40) COC(=O)[C@@H](CC(C)C)NS(=O)(=O)N(Cc1ccccc1)[C@@H](CC(C)C)C(=O)OC
41) CC(=O)C1=C(C)Nc2ncnn2C1c1cccc(OCc2ccccc2)c1 (centres undefined)
42) CC1CCC(NCCNC(=O)c2ccco2)CC1 (centres undefined)
43) CCCCCc1nc2sc3c(c2c(=O)n1N)CCC3
44) CCCCN1CNC(=S)N(c2ccccc2OCC)C1
45) COc1ccc(C(=O)NC(=S)NNC(=O)COc2ccccc2)cc1
46) O=C(Oc1cccc2c(=O)[nH]ccc12)c1ccccc1
47) CCC(C(=O)OCC(=O)NC(=O)NC(C)(C)C)c1ccccc1 (centres undefined)
48) CC1=C(C(=O)Nc2cccnc2)C(c2ccncc2)n2nnnc2N1 (centres undefined)
assay / entry	39	40	41	42	43	44	45	46	47	48
NR1D1 modulator	3	4	2	-5	-3	0	8	2	-5	3
ARFGAP1 inhibitor	-15	6	4	1	6	5	-2	8	6	6
ASAP1 GAP inh	10	0	-1	11	-4	3	7	-3	-5	-5
mABHD4 FP	-3	-12	-4	7	5	-4	2	-10	-4	1
PG9 Ab binder	-1.2	-3.9	0.5	0.6	-0.1	2.2	1.4	-0.8	0.9	-0.1
rCAG binder	-3	-11	1	3	2	-3	9	-2	-8	0
GC-B act	7	-16	-3	-1	-5	2	-1	1	-2	5
NPR1 activator	5	-7	-2	-1	6	3	0	-5	-1	-2
SMARCA2 activ	-5	0	-2	-1	1	7	-5	-2	-3	0

49) Cc1nn(Cc2ccccc2)c(Cl)c1C(=O)OCC(=O)NC(=O)NC12CC3CC(CC(C3)C1)C2
50) CC(=O)N/C(=C\c1ccccc1)C(=O)OC(C)C(=O)Nc1ccccc1F (centres undefined)
51) O=C(NNC(=O)c1ccccc1-n1cccc1)c1cccnc1
52) Cc1cc2c(cc1S(=O)(=O)N(C)c1ccccc1)NC(=O)CO2
53) CC(=O)c1cccc(S(=O)(=O)NC2CCSc3ccccc32)c1 (centres undefined)
54) COc1ccc(S(=O)(=O)N(CCN2CCOCC2)Cc2cc(OC)ccc2OC)cc1
assay / entry	49	50	51	52	53	54
NR1D1 modulator	2	-3	2	-3	0	-3
ARFGAP1 inhibitor	8	-9	5	-3	-1	-5
ASAP1 GAP inh	9	-8	9	9	-11	-6
mABHD4 FP	-2	3	-3	-1	7	0
PG9 Ab binder	-3.6	-2.5	0.5	-2.0	-3.4	1.0
rCAG binder	2	5	5	1	6	-9
GC-B act	9	-5	-2	2	-2	-6
NPR1 activator	-2	2	3	-3	-4	-5
SMARCA2 activ	1	-1	-1	1	-4	-4

Screens: PubChem, several laboratories
